FGF22 binding: binders of human FGF22 protein, primary screen, FGF22 synaptogenesis inhibitor project, biophysical, thermal shift, single point; Fibroblast growth factor 22 (Homo sapiens), Q9HCT0; recombinant FGF22 thermal shift, SYPRO orange fluorescence; percent of sucrose octasulfate shift, DMSO zero; calls only at 9.99 µM; 340,000 tested, 1.5% active;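 active = melting point raised past a set limit in the mean and every replicate; three in four hits are not shown here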
Target sequence (Q9HCT0 whole entry, looked up): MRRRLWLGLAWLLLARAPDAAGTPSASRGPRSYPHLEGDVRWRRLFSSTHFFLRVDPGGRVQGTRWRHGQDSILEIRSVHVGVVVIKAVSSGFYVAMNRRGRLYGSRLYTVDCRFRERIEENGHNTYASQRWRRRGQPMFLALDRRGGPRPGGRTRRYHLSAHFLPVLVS
rRNA inh HTS: reduced GFP signal of wild-type E. coli, primary screen, bacterial rRNA inhibitor project, GFP/RFP fluorescence, OD600, single point; GFP signal change (wild-type ribosome), % (test concentration not listed); 350,000 tested, 1.6% active; E. coli WT GFP vs humanized-ribosome RFP mutants, 24 h; active compounds read low; DMSO median 0, no signal -100;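 active = significant combined selectivity score with lowered wild-type GFP, culture density cut under 30%, mutant RFP and density less affected; inactive = any of these conditions unmet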; note: one replicate is shown; some compounds called inactive have numbers as strong as hits
MLL AF4-AF9 inh: inhibitors of AF4 peptide binding to AF9, primary screen, biochemical, AlphaScreen, biotin-AF4 peptide, FLAG-AF9, single point | Protein AF-9 (Homo sapiens), P42568 | inhibition, % at 10 µM | 350,000 tested, 0.47% active;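 active = every replicate reaching a set inhibition limit, whatever the replicate mean, cut at about 25% in these data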;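 note: 0% = plate neutral control median and 100% = total signal loss; the record names both 10 and 1 µM as test concentration; the first replicate is given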
Target sequence (P42568 whole entry, looked up): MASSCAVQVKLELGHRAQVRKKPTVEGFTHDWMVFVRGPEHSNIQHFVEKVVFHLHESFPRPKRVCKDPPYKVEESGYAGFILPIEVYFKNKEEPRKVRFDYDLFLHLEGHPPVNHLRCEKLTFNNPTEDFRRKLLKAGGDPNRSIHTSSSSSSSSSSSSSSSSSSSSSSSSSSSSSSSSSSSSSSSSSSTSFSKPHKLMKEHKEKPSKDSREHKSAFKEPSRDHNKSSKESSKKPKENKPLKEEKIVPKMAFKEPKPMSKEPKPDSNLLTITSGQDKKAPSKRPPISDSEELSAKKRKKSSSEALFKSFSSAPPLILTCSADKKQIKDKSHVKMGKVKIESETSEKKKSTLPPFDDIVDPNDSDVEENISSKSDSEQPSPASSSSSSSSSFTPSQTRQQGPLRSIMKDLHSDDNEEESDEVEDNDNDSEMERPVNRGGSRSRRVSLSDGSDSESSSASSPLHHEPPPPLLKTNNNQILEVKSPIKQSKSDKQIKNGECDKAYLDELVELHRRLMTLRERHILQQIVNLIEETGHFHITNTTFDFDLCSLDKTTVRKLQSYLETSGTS
rRNA inh HTS OD600: also measured in rRNA inh HTS; calls as there; OD600 change, %; measured here: OD600 growth;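 optical density of the mix in the first replicate; 0 = DMSO median and -100 = no signal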
rRNA inh HTS RFP: also measured in rRNA inh HTS; calls as there; RFP signal change, %; measured here: RFP humanized mutant strains;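 first replicate; 0 = DMSO median and -100 = no signal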
Active calls of the source: *; i = inactive. Only part of the results is shown; the hit share may differ from the screen's.

SMILES	FGF22 binding	rRNA inh HTS	rRNA inh HTS OD600	rRNA inh HTS RFP	MLL AF4-AF9 inh
C[C@H]1CN([C@@H](C)CO)S(=O)(=O)c2ccc(C3=CCCCC3)cc2O[C@H]1CN(C)C(=O)c1ccc(F)cc1	i	-4.9	-23.1	9.3	6.6
C[C@H]1CN([C@@H](C)CO)C(=O)c2cc(C3=CCCC3)cnc2O[C@H]1CN(C)C(=O)c1ccncc1	i	3.5	-4.2	-4.8	-2.7
CC(OC(=O)C1=COCCO1)C(=O)NC1CCCCC1 (centres undefined)	i	10.1	12.4	0.6	2.8
CCNC(=O)[C@@H]1[C@@H](CO)[C@@H]2Cn3c(ccc(/C=C/c4ccccc4)c3=O)[C@H]1N2C(C)=O	i	-2.5	-4.4	-0.4	-1.0
CCCNC(=O)N(C)C[C@@H]1Oc2ncc(-c3ccncc3)cc2C(=O)N([C@H](C)CO)C[C@H]1C	i	0.2	16.1	-0.8	-2.8
C[C@@H]1CN([C@@H](C)CO)C(=O)c2cccc(NS(=O)(=O)c3cn(C)cn3)c2O[C@@H]1CN(C)S(=O)(=O)c1cccs1	i	-1.4	1.0	-1.2	-3.8
O=C(N[C@H]1CC[C@@H](CCNC(=O)C2CCCCC2)O[C@@H]1CO)c1ccncc1	i	2.6	0.3	0.7	2.1
N#Cc1ccc(OCC(=O)N[C@@H](Cc2ccccc2)c2nc3ccccc3[nH]2)cc1	i	13.3	16.4	0.4	2.0
CN1c2ccc(-c3ccccc3F)cc2[C@@H]2[C@@H](CCN2S(=O)(=O)c2ccccc2F)[C@@H]1CO	i	1.0	12.0	3.4	-0.8
CCOC(=O)C1=CCC(c2ccc(CC)cc2)N(S(=O)(=O)c2ccc(C)cc2)C1 (centres undefined)	i	13.2	13.7	0.3	-1.5
CO[C@@H]1CN(C)C(=O)c2ccc(NC(=O)c3ccc4c(c3)OCO4)cc2OC[C@H](C)N(CCC(F)(F)F)C[C@@H]1C	i	-3.9	-11.3	7.3	0.6
C[C@@H]1CN([C@H](C)CO)C(=O)c2cc(NC(=O)Nc3ccc(F)cc3)ccc2O[C@H]1CN(C)Cc1ccc(C(=O)O)cc1	i	4.0	8.5	0.9	-2.3
Cc1noc(C)c1S(=O)(=O)N(C)C[C@@H]1OCc2ccccc2-c2c(n(C)c3ccccc23)C(=O)N([C@@H](C)CO)C[C@H]1C	i	1.0	0.7	1.6	1.9
COc1ccc(S(=O)(=O)Nc2ccc3c(c2)C(=O)N([C@H](C)CO)C[C@@H](C)[C@H](CN(C)S(=O)(=O)c2ccc(C)cc2)O3)cc1	i	-4.2	-12.8	0.0	-8.4
COc1ccccc1C=C(C(=O)c1ccccc1)c1ccccc1	i	-0.4	3.2	-2.1	5.0

The last 5 compounds of the part above come first, to join the parts:
SMILES	FGF22 binding	rRNA inh HTS	rRNA inh HTS OD600	rRNA inh HTS RFP	MLL AF4-AF9 inh
CO[C@@H]1CN(C)C(=O)c2ccc(NC(=O)c3ccc4c(c3)OCO4)cc2OC[C@H](C)N(CCC(F)(F)F)C[C@@H]1C	i	-3.9	-11.3	7.3	0.6
C[C@@H]1CN([C@H](C)CO)C(=O)c2cc(NC(=O)Nc3ccc(F)cc3)ccc2O[C@H]1CN(C)Cc1ccc(C(=O)O)cc1	i	4.0	8.5	0.9	-2.3
Cc1noc(C)c1S(=O)(=O)N(C)C[C@@H]1OCc2ccccc2-c2c(n(C)c3ccccc23)C(=O)N([C@@H](C)CO)C[C@H]1C	i	1.0	0.7	1.6	1.9
COc1ccc(S(=O)(=O)Nc2ccc3c(c2)C(=O)N([C@H](C)CO)C[C@@H](C)[C@H](CN(C)S(=O)(=O)c2ccc(C)cc2)O3)cc1	i	-4.2	-12.8	0.0	-8.4
COc1ccccc1C=C(C(=O)c1ccccc1)c1ccccc1	i	-0.4	3.2	-2.1	5.0
O=C(CN1CCOCC1)N[C@H]1CC[C@H](CCn2cc(C3CC3)nn2)O[C@H]1CO	i	2.7	11.9	-2.8	-2.4
CN1C(=O)[C@@]2(O[C@H]3c4ccccc4C=CN3C3=C2C(=O)CCC3)c2ccccc21	i	-3.3	-10.3	1.3	-2.4
C[C@H]1CN([C@@H](C)CO)C(=O)c2cccc(NC(=O)C3CC3)c2O[C@H]1CN(C)C(=O)Nc1ccc(C(F)(F)F)cc1	i	-4.8	-5.8	-0.4	-2.1
COC(=O)N(C)C[C@H]1OCc2ccccc2-c2c(n(C)c3ccccc23)C(=O)N([C@@H](C)CO)C[C@H]1C	i	0.1	-0.9	0.5	-4.3
O=C(c1ccc(F)cc1)N1CC(=O)N2[C@H](C1)[C@H](c1ccc(C#CCC3CCCC3)cc1)[C@@H]2CO	i	-8.7	-14.1	2.0	-1.1
COCCCN1C(=O)C(CC(=O)NCCCN(C)C)CC(C(=O)N2CCOCC2)=C1C (centres undefined)	i	11.4	15.1	-1.7	-0.5
O=C(NCC[C@@H]1CC[C@@H](NC(=O)c2ccccc2F)[C@@H](CO)O1)c1ccc2c(c1)OCO2	i	0.6	-6.6	-0.3	-1.2
COP(=O)(OC)c1ccc(NCc2cc(O)ccc2O)cc1	i	16.1	16.2	13.4	-8.8
O=C(NCC(F)(F)F)c1csc([C@@H]2O[C@H](CO)[C@H](O)[C@H](O)[C@H]2O)n1	i	5.3	9.3	-2.8	0.1
CN1C(=O)c2cc(NC(=O)c3cccs3)ccc2OC[C@H]2O[C@@H](CC(=O)NCCN3CCCCC3)CC[C@@H]21	i	5.7	13.1	-0.7	-1.2
Cc1ccc(S(=O)(=O)Nc2ccc3c(c2)CC(=O)N([C@@H](C)CO)C[C@@H](C)[C@H](CN(C)S(=O)(=O)c2c(C)noc2C)O3)cc1	i	-0.5	1.2	-0.9	8.1
Cc1cccc(OCC(=O)N2CCc3ccccc3C2)c1C	i	-8.3	-24.4	-3.6	-2.5
C/C=C/c1ccc([C@@H]2[C@@H](CO)N(C(C)=O)[C@H]2CN(C(=O)COC)C(C)C)cc1	i	0.1	0.6	-1.6	0.6
O=C(O)CCCC(=O)OCCCc1cc2ccccc2c(=O)o1	i	11.4	6.5	-0.4	-2.2
COCC(=O)N(C)C[C@@H]1Oc2ncc(-c3ccc(F)cc3)cc2C(=O)N([C@@H](C)CO)C[C@H]1C	i	2.6	2.7	-2.2	-2.1
C/C=C/c1ccc2c(c1)O[C@@H](CN(C)C(=O)Nc1ccc(OC)cc1)[C@H](C)CN([C@H](C)CO)S2(=O)=O	i	-4.0	-21.0	3.0	2.6
C[C@H](CO)N1C[C@H](C)[C@H](CN(C)C(=O)CCC(F)(F)F)OCCCC[C@H](C)Oc2ccc(NC(=O)Nc3ccccc3)cc2C1=O	i	-5.1	-4.2	-2.5	-2.3
C[C@@H]1CCCCO[C@@H](CN(C)S(=O)(=O)c2cn(C)cn2)[C@@H](C)CN([C@H](C)CO)C(=O)c2cc(NS(=O)(=O)c3cccs3)ccc2O1	i	-0.8	5.7	-1.8	-1.8
C[C@@H]1CCCCO[C@@H](CN(C)Cc2ccc(C(F)(F)F)cc2)[C@@H](C)CN([C@@H](C)CO)C(=O)c2cc(N(C)C)ccc2O1	i	-0.3	-7.3	4.0	20.8
CCC(=O)N[C@@H]1C=C[C@@H](CC(=O)OC)O[C@H]1CO	i	2.2	3.5	-1.6	-0.2
C[C@@H]1CN([C@H](C)CO)C(=O)c2cc(NC(=O)Nc3ccc(F)cc3)ccc2O[C@H]1CN(C)Cc1ccc(Oc2ccccc2)cc1	i	-1.1	-3.5	2.1	0.8
Cc1noc(C)c1NC(=O)Nc1ccc2c(c1)C(=O)N([C@H](C)CO)C[C@@H](C)[C@@H](CN(C)S(=O)(=O)c1cccs1)OCCCC[C@H](C)O2	i	-1.1	9.2	-1.4	0.8
O=C(C[C@H]1CC[C@@H]2[C@H](COC[C@H](O)CN2Cc2cccc(C(F)(F)F)c2)O1)NCc1ccc(F)cc1	i	-24.6	-63.6	9.0	-0.8
COc1ccc2c3c(n(C)c2c1)[C@H](CO)N(C(=O)Nc1ccc(F)cc1)CC31CN(Cc2cccnc2)C1	i	2.5	-14.1	5.3	21.3
C[C@H]1CN([C@@H](C)CO)C(=O)c2cccc(NC(=O)C3CCOCC3)c2O[C@@H]1CN(C)C(=O)Nc1ccc(F)cc1	i	4.5	5.4	-2.0	-2.2
O=C(C1CC(=O)N(c2ccc(F)c(Cl)c2)C1)N1CCOCC1 (centres undefined)	i	-1.1	17.0	-1.9	-0.7
COCCNC(=O)C[C@@H]1C=C[C@H](NC(=O)NC2CCCC2)[C@@H](CO)O1	i	-0.6	3.9	2.1	-1.5
O=S(=O)(c1ccc(F)cc1)N1CCCc2nc(-c3ccc(Br)cc3)ccc21	i	5.2	12.7	-2.4	-2.0
O=C(C[C@H]1CC[C@@H]2[C@H](COC[C@@H](O)CN2C(=O)c2ccccc2F)O1)N1CCCCC1	i	-3.1	0.2	-0.7	-0.1
Cc1noc(C)c1NC(=O)Nc1ccc2c(c1)C(=O)N([C@@H](C)CO)C[C@@H](C)[C@@H](CN(C)C(=O)CCCN(C)C)OCCCC[C@H](C)O2	i	3.4	1.8	-1.2	-1.8
C[C@@H]1CN([C@@H](C)CO)C(=O)Cc2cc(NC(=O)C3CCCCC3)ccc2O[C@H]1CN(C)C(=O)Nc1cccc2ccccc12	i	-2.1	1.4	-1.4	1.2
C[C@@H]1CN([C@@H](C)CO)C(=O)c2cc(NS(=O)(=O)c3ccccc3)ccc2O[C@@H]1CN(C)S(C)(=O)=O	i	-1.0	-1.5	-1.8	-0.4
COc1cccc(C(C)(O)c2nc(-c3ccc(Cl)cc3)cs2)c1 (centres undefined)	i	-58.7	-78.9	-20.7	-2.0
CO[C@H]1CN(C)C(=O)c2cc(NS(C)(=O)=O)ccc2OC[C@H](C)N(S(C)(=O)=O)C[C@@H]1C	i	-0.1	2.7	-1.0	-1.0
COc1ccc(NC(=O)Nc2ccc3c(c2)CC(=O)N([C@H](C)CO)C[C@H](C)[C@@H](CN(C)Cc2ccncc2)O3)cc1	i	-0.5	-2.5	1.2	4.8
O=C(C[C@H]1C[C@H]2c3cc(NC(=O)Nc4ccc(C(F)(F)F)cc4)ccc3O[C@H]2[C@H](CO)O1)NCc1ccccn1	i	2.4	8.5	1.9	0.3
CCC(=O)N1C[C@H](C)[C@H](OC)CN(C)C(=O)c2ccc(NC(=O)c3ccc(F)cc3)cc2OC[C@@H]1C	i	-1.5	2.0	0.0	-0.6
CN(C)CC#Cc1ccc([C@H]2[C@@H](CO)N3CCCCN(C(=O)Nc4ccccc4F)C[C@@H]23)cc1	i	3.9	12.8	-2.1	2.0
CCC(=O)N(C)C[C@H]1Oc2cc(C#CCC3CCCC3)ccc2S(=O)(=O)N([C@H](C)CO)C[C@H]1C	i	-16.7	-36.0	21.9	1.1
N#C[C@@H]1[C@@H](c2ccc(-c3ccccc3F)cc2)[C@H](CO)N1C(=O)C1CC1	i	1.3	3.6	-0.6	-2.2
C[C@@H]1CN([C@H](C)CO)C(=O)c2cc(NC(=O)Nc3ccc(C(F)(F)F)cc3)ccc2O[C@H]1CN(C)S(C)(=O)=O	i	-8.7	-4.2	-0.1	0.9
CCCNC(=O)C[C@@H]1CC[C@@H]2[C@@H](COc3ccc(NC(=O)C4CCCC4)cc3C(=O)N2C)O1	i	1.2	4.4	-1.5	-0.3
C[C@@H]1CN([C@@H](C)CO)C(=O)Cc2cc(NS(C)(=O)=O)ccc2O[C@@H]1CN(C)C(=O)Nc1ccccc1	i	-0.4	-0.1	-1.9	-1.7
C[C@H](CO)N1C[C@H](C)[C@H](CN(C)C(=O)Nc2ccc3c(c2)OCO3)Oc2c(NS(=O)(=O)c3cccs3)cccc2C1=O	i	-3.0	-4.8	1.1	2.6
CC(C)(O)C#Cc1ccc([C@H]2[C@H](CO)N3CCCCN(C(=O)c4ccncc4)C[C@@H]23)cc1	i	-0.2	-8.6	-0.2	-6.2
[O-][n+]1ccc(CC(O)(C(F)(F)F)C(F)(F)F)cc1	i	6.1	2.3	-0.4	-0.5
CC(=O)OCC(C)n1[nH]c2ccccc2c1=O (centres undefined)	i	-2.1	8.7	-8.7	-0.3
C[C@@H]1CN([C@@H](C)CO)C(=O)Cc2cc(NS(=O)(=O)c3cccs3)ccc2O[C@@H]1CN(C)C	i	0.3	2.6	-0.1	-4.1
COc1ccc(S(=O)(=O)Nc2ccc3c(c2)CC(=O)N([C@@H](C)CO)C[C@H](C)[C@@H](CN(C)C(=O)Nc2ccc(C(F)(F)F)cc2)O3)cc1	i	-3.8	-13.4	-0.6	0.6
O=C(CCN1CCCCC1)NCC[C@@H]1CC[C@@H](NS(=O)(=O)c2cccc(Cl)c2)[C@@H](CO)O1	i	1.4	6.9	-0.7	-1.0
COc1ccc(S(=O)(=O)N(C)C[C@@H]2OCCCC[C@@H](C)Oc3ccc(NS(=O)(=O)c4ccc(F)cc4)cc3C(=O)N([C@@H](C)CO)C[C@H]2C)cc1	i	-5.0	-4.9	0.0	-0.2
CC(C)NC(=O)Nc1ccc2c(c1)C(=O)N([C@H](C)CO)C[C@@H](C)[C@H](CN(C)Cc1ccc(C(=O)O)cc1)OCCCC[C@H](C)O2	i	4.5	9.0	-2.3	-1.5

Bioassay records from PubChem.
